From PubChem
HCMV UL50-53 inh: inhibitors of HCMV UL50-UL53 nuclear egress complex interaction. HTRF UL50-UL53 interaction, normalized percent inhibition. inhibition, % (no concentration beside the values). 190,000 compounds, 0.15% hits;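 active means both replicates at 50% or more, plus weaker picks with an unusually low signal ratio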;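 further: stock transfer was 100 nL into about 20 µL; 0% = negative control wells and 100% = wells with untagged competitor protein; inactives centre near -12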
Sa growth 42C: S. aureus growth inhibition | relative growth, % (test concentration not listed) | AID 720641 | 170,000 compounds, 0.53% hits | S. aureus RN4220 growth, OD600, 20 h, 42 °C; active compounds read low;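 active means growth at 42 °C up to 50% and 20 or more points under that at 30 °C, or under 10% at both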;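 further: 300 nL library stock went into each well; scaled to the means of positive and negative controls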
GIV Gai3 FP: inhibitors of GIV GBA-motif binding to rat Galpha-i3; P08753; Galpha-i3/FITC-GIV peptide fluorescence polarization, 90 min; active compounds read low; scaled: aluminum fluoride 0%, vehicle 100%; percent of control (FP), % (concentration not given with the values); 210,000 compounds, 0.42% hits; AID 1224905;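 active means replicate mean at 85% of control or lower, very high polarization wells dropped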;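 further: wells of about 15 µL received 100 nL stock; the first replicate is given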
Target sequence (P08753 whole entry, looked up): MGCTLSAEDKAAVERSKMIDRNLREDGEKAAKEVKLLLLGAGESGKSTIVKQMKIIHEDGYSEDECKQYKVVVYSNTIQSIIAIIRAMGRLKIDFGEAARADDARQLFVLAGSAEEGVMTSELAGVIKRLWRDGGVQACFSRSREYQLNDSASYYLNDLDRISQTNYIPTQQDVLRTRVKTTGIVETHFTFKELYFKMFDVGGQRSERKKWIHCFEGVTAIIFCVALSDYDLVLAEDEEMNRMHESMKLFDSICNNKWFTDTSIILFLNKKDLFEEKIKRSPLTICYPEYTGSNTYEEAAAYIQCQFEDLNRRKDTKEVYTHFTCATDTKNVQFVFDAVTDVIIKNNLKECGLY
Sa growth 42C second temp: second read-out of Sa growth 42C, no call of its own (marks repeat the call); relative growth, %; measured here: growth at 30 °C;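 optical density after 20 h as mean of two plates; 100% = untreated growth and lower means inhibition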
* hit, by the source's call; nt = no result given; & = joins results of further samples.

Compound,HCMV UL50-53 inh,GIV Gai3 FP,Sa growth 42C,Sa growth 42C second temp
c1ccn2c(c1)nc1c2nc2ccccn21,-36,101,84,88
Cc1ccc(-n2cnc3ccccc32)cc1,-24,nt,92,86
O=C(C1CCC(Cn2c(=O)c3sccc3n(Cc3ccccc3)c2=O)CC1)N1CCOCC1 (configuration not stated),nt,99,89,93
O=C1c2ccccc2S(=O)(=O)N1CCCCN1C(=O)c2ccccc2S1(=O)=O,-28,108,89,91
CCOC(=O)N1CC=C2C(C1)C(c1cccc(C(F)(F)F)c1)C(C#N)=C(N)C2(C#N)C#N (configuration not stated),-18,nt,80,99
Cc1nc2nc[nH]n2c(=O)c1NS(C)(=O)=O,nt,100,111,87
COc1cc(NC(=O)C2CCCN(S(=O)(=O)c3ccc4c(c3)NC(=O)CO4)C2)cc(OC)c1 (configuration not stated),-12,114,nt,nt
Cc1cc(C)n2nc(N(Cc3ccccc3C)S(=O)(=O)c3ccccc3)nc2n1,-13,105,nt,nt
CCC(=O)N1CCc2cc(Br)cc(S(=O)(=O)NCc3ccccc3OC)c21,nt,106,100,89
COc1ccc(C(C(=O)NC2CCCC2)N(C(=O)c2ccn[nH]2)c2ccc(F)cc2)cc1OC (configuration not stated),2,nt,113,89
Cc1c(C(C)(C)C)s/c(=N\S(=O)(=O)c2ccc(Cl)cc2)n1C,-2,nt,114,60
N#Cc1c(N)n[nH]c1CCCNC(=O)c1oc2ccccc2c1CSc1ccc(Cl)cc1,-21,nt,35,50
CCn1c(CCc2ccccc2)nnc1SCC(N)=O,-22,99,102,105
COc1ccc(CCC(=O)Nc2nc3ccccc3[nH]2)cc1OC,-8,nt,101,91
c1nncn1N=C1CCCCC1,-7,nt,94,93
CCC(=O)c1ccccc1OCC(=O)Nc1c(F)c(F)c(F)c(F)c1F,-32,nt,108,90
COc1ccccc1C(=O)Nc1cccc(C(=O)OCc2cc(=O)n3ccsc3n2)c1,nt,108,92,91
CCCn1c(N)c(NCCN2CCOCC2)c(=O)n(CC(=O)NCc2ccccc2)c1=O,-5,nt,89,91
C=CCNC(=O)COc1cccc2c(=O)n(CC)ccc12,-27,100,91,87
Cc1ccc(C(=O)c2oc3ccccc3c2NC(=O)COc2ccc(C(C)(C)C)cc2)cc1,-22,107,103,91

4 entries from above, reformatted:
SMILES: N#Cc1c(N)n[nH]c1CCCNC(=O)c1oc2ccccc2c1CSc1ccc(Cl)cc1
  HCMV UL50-53 inh = -21; GIV Gai3 FP = nt; Sa growth 42C = 35; Sa growth 42C second temp = 50
SMILES: c1ccn2c(c1)nc1c2nc2ccccn21
  HCMV UL50-53 inh = -36; GIV Gai3 FP = 101; Sa growth 42C = 84; Sa growth 42C second temp = 88
SMILES: Cc1c(C(C)(C)C)s/c(=N\S(=O)(=O)c2ccc(Cl)cc2)n1C
  HCMV UL50-53 inh = -2; GIV Gai3 FP = nt; Sa growth 42C = 114; Sa growth 42C second temp = 60
SMILES: CCC(=O)c1ccccc1OCC(=O)Nc1c(F)c(F)c(F)c(F)c1F
  HCMV UL50-53 inh = -32; GIV Gai3 FP = nt; Sa growth 42C = 108; Sa growth 42C second temp = 90

Next section:
Compound,HCMV UL50-53 inh,GIV Gai3 FP,Sa growth 42C,Sa growth 42C second temp
COc1ccccc1C(=O)Nc1ccc(S(C)(=O)=O)cc1,-18,nt,111,93
Cc1ccc(C)c(NC(=O)C2CCCN(S(=O)(=O)c3cccc4nsnc34)C2)c1 (configuration not stated),-63,99,106,86
Clc1ccc2[nH]c3c(c2c1)CN(Cc1ccccc1)CC3,nt,96,62,0
COc1ccc(OCCn2c(NC(=O)c3ccccc3Cl)nc3ccccc32)cc1,nt,103,109,63
COc1ccc(C)cc1NC(=O)Cn1c(=O)oc2cc(S(=O)(=O)NCc3ccccc3)ccc21,nt,109,122,86
Cc1ccc(-c2noc(-c3cccnc3N3CCOCC3)n2)cc1,-17,100,nt,nt
CCOC(=O)c1c(C)[nH]c(C)c1S(=O)(=O)NCC(=O)NCc1cccc(C)c1,nt,110,101,99
Cc1ccc(NC(=O)C2CCN(S(=O)(=O)c3ccc4[nH]c(=O)ccc4c3)CC2)cc1C,nt,103,141,96
O=c1c2ccccc2nc(-c2ccc(F)cc2)n1NCc1ccccc1O,-27,100,95,84
Cc1cccn2c(N)c(-c3ccccc3)nc12,-61,nt,94,87
CCCCOc1ccc(C(=O)Nc2ccc(-c3nc4ccccc4s3)cc2C)cc1,4,107,102,94
O=C(CCC1CCCC1)N1CCC(n2nc(-c3ccccc3)oc2=O)CC1,-21,106,nt,nt
COc1ccccc1CN(C)C(=O)c1cc(C)nc2ccccc12,-17,nt,92,98
Cc1cccc(NC(=O)CC2C(=O)OCCN2Cc2ccccc2)c1 (configuration not stated),18,104,101,92
COc1ccc(C2C(=O)N(CCc3ccccc3)CC(=O)N2Cc2ccc3c(c2)OCO3)cc1 (configuration not stated),11,101,94,103
O=C(CN1CCC2(CC1)OCCO2)Nc1ccccc1,-5,96,100,101
C=CCc1ccc(OCCOCCN2CCN(C)CC2)c(OC)c1,-12,nt,106,93
CCOc1ccc(-c2cc(NC(=O)Nc3ccccc3Cl)c(C(=O)OC)s2)cc1,-19,105,116,85
COc1ccccc1NC(=O)Nc1ccnn1C1CCCCC1,-7,nt,84,101
Cn1c(=O)[nH]c(=O)c2[nH]c(NCCO)nc21,-20,100,99,87

Entries of single compounds, looked up by structure. Order of values: HCMV UL50-53 inh, GIV Gai3 FP, Sa growth 42C, Sa growth 42C second temp
COc1ccccc1NC(=O)Nc1ccnn1C1CCCCC1 is entered as -7, nt, 84, 101
CCOC(=O)c1c(C)[nH]c(C)c1S(=O)(=O)NCC(=O)NCc1cccc(C)c1 is entered as nt, 110, 101, 99

Next part
Compound,HCMV UL50-53 inh,GIV Gai3 FP,Sa growth 42C,Sa growth 42C second temp
CCn1c(=O)c(C(=O)Nc2cccc(F)c2)c(O)c2ccccc21,-20,107,nt,nt
CC(=O)N1CCCSc2ccc(S(=O)(=O)NC(C)(C)C)cc21,-25,99,nt,nt
CCCCC(=O)N1c2ccccc2C(Nc2ccccc2)CC1C (configuration not stated),-12,nt,103,98
COc1ccc(-c2ccc(/C=C3\C(=O)N(c4cccc(Br)c4)N=C3C)o2)c([N+](=O)[O-])c1,-28,107,nt,nt
COc1ccc(NC(c2ccccn2)c2oc(CO)cc(=O)c2O)cc1 (configuration not stated),nt,108,81,79
COc1ccc(S(=O)(=O)c2cn(C)c3cc(N4CCOCC4)c(F)cc3c2=O)cc1,nt,105,125,96
Cn1c(=O)n(C)c2cc(N3CCOCC3)c(NS(=O)(=O)c3cccc(C#N)c3)cc21,nt,99,64,75
Clc1cccc(-c2nnc(CN3CCN(c4ccccn4)CC3)o2)c1,-5,106,103,91
CCCC(C)C(=O)Nc1ccc(S(N)(=O)=O)cc1 (configuration not stated),-22,nt,87,82
COc1cc(C2C(C#N)=C(N)OC3=C2C(=O)CC(C)(C)C3)cc(OC)c1OC(C)=O (configuration not stated),-6,110,nt,nt
CC(C)(C)c1ccccc1NC(=O)c1cccc(Cn2cc(Cl)cn2)c1,-9,nt,98,88
CC(C)=NNS(=O)(=O)c1ccc(N2CCCC2=O)cc1,-8,102,90,104
Cc1cc(S(=O)(=O)Nc2c(C)nc3nc[nH]n3c2=O)ccc1F,15,102,nt,nt
Cc1cccc(CCNC(=O)c2c[nH]c3ccc(S(=O)(=O)Nc4ccccc4F)cc3c2=O)c1,nt,109,129,97
CCn1c(=O)c2c(C(=O)Nc3ccc(F)cc3)cc(=O)n(CC)c2n(C)c1=O,-20,108,nt,nt
N#Cc1cc2c(=O)n3ccccc3nc2n(CCN2CCOCC2)c1=O,nt,109,91,88
N#CCC(=O)Nc1cc(Cl)cc(Cl)c1,-40,nt,101,74
CC1CCCCC1NC(=O)COc1ccc(C#N)cc1 (configuration not stated),-7,nt,113,87
Cc1nc(NCCC2=CCCCC2)c2c(C)noc2n1,-17,97,nt,nt
O=S(=O)(c1ccc(-c2noc(COc3ccc(Cl)cc3)n2)cc1)N1CCOCC1,-19,112,nt,nt

Remaining list, next part
Compound,HCMV UL50-53 inh,GIV Gai3 FP,Sa growth 42C,Sa growth 42C second temp
COc1ccc(-n2c(=O)c3c(c4cc(OC)ccc4n3C)n(Cc3c(F)cccc3Cl)c2=O)cc1,nt,107,118,98
CC(=O)Nc1ccc(NC(=O)CS(=O)(=O)Cc2ccccc2)cc1,-12,102,96,95
Cc1cccc(N(CC(N)=O)C2SC(=O)NC2=O)c1 (configuration not stated),nt,107,97,97
O=C(NCCc1ccncc1)Nc1c[nH]c2ccccc2c1=O,-24,104,112,99
COc1ccc(CCNc2ncnc3c2nnn3C)cc1,nt,102,116,98
CCOC(=O)c1cnc(SCC(=O)N2CCc3ccccc32)nc1N,nt,112,110,82
CC(C)(C)NC(=O)CN1CCN(C(=O)c2ccc(N3CCNCC3)c(NS(C)(=O)=O)c2)CC1,-8,103,nt,nt
O=C(Nc1ccc(-c2cc3ccccc3[nH]2)cc1)c1cnccn1,-16,107,nt,nt
Cc1ccccc1Nc1nc(N)nc(COC(=O)C23CC4CC(CC(O)(C4)C2)C3)n1,-11,nt,112,95
CCCC(=O)Nc1ccc2nc(SCCOc3ccccc3)sc2c1,-19&-20,99&98,102,91
CCOc1ccc(-c2n[nH]c(=S)c3ccccc23)cc1,nt,102,108,90
Cn1nc(C(=O)NC2CCN(Cc3ccccc3)CC2)c2c1-c1ccccc1S(=O)(=O)C2,9,101,121,97
Cc1c(C(=O)N(C)c2ccccc2)sc2nc(-c3ccc(F)cc3)cn12,nt,107,114,54
CCCCN(C)c1ncnc2c1sc1nc3c(cc12)COC(C)(C)C3,nt,105,124,88
Cc1coc2cc3oc(=O)cc(C)c3cc12,-9,105,100,87
COc1ccccc1NC(=O)CSc1nc2ccccc2cc1C#N,24,107,97,99
CN(C)C(=Nc1ccccc1)P(=O)(c1ccccc1)N(C)C (configuration not stated),8,nt,104,92
Cc1ccccc1OCCC(=O)Nc1ccc(F)c(Cl)c1,27,nt,73,102
Cc1nc2c(-c3ccccc3)c(C)nn2c(C)c1CC(=O)NCc1cccc(Cl)c1,-27,106,nt,nt
Cc1c(C(=O)O)[nH]c2c1C(=O)CC(c1ccc(Cl)cc1)C2 (configuration not stated),-11,89,91,99

(continued)
Compound,HCMV UL50-53 inh,GIV Gai3 FP,Sa growth 42C,Sa growth 42C second temp
Cc1ccc(C)n1-c1sccc1C(=O)Oc1ccc2c(c1)OCO2,-18,nt,61,55
CCCCN1C(=O)c2ccc(C(=O)OCC(=O)N3CCN(c4ccccc4)CC3)cc2C1=O,-44,nt,96,88
Cc1nc(C(F)(F)F)nc(Sc2cccc(C(F)(F)F)c2)c1C,1,102,94,98
CC(C)(C)C1(O)CC(C(F)(F)F)=NN1C(=O)Cc1ccc([N+](=O)[O-])cc1 (configuration not stated),-29,106,nt,nt
Nc1ccc2[nH]c3ccccc3c2c1,-16,127,81,63
O=C(Nc1ccc(-n2nncc2-c2ccccc2)cc1)c1cccc(F)c1,nt,109,104,103
Cc1ccc2occ(CC(=O)Nc3ccc(S(=O)(=O)N4CC(C)OC(C)C4)cc3)c2c1 (configuration not stated),1,106,92,94
COc1cc(C(=O)NN)ccc1-c1ccc(C(=O)NN)cc1,-21,97,103,75
CCOc1ccc(N=C2SC(C(=O)Nc3ccccc3OC)CC(=O)N2Cc2ccc(OC)cc2)cc1 (configuration not stated),-12,104,nt,nt
CC(Sc1nc(=O)cc(N)n1CCc1ccccc1)C(=O)Nc1ccccc1C#N (configuration not stated),0,102,120,88
Cc1ccc2[nH]c3c(c2c1)CCCC3C(N)=O (configuration not stated),12,98&106,105,94
COC(=O)c1ccc(NC(=O)CC(CC(=O)O)c2ccccc2)cc1 (configuration not stated),nt,101,115,91
O=C(CCc1nc2ccccc2s1)OCC(=O)c1ccco1,-34,nt,78,88
O=C(Nc1ccc(C(=O)N2CCCc3ccccc32)cc1)c1ccco1,-1,107,113,94
Cc1c(C(=O)NCCN2CCOCC2)sc2nc(-c3ccc(F)cc3)cn12,-23,106,79,66
CC(C)(C)c1ccc(Cn2c(=N)n(CC(O)c3ccco3)c3ccccc32)cc1 (configuration not stated),-7,101,31,0
COc1ccc(C2N3CC4(C)CN2CC(C)(C3)C4O)cc1 (configuration not stated),-9,98,nt,nt
O=C(COc1ccc(OCc2ccccc2)cc1)NC1CCOC1=O (configuration not stated),-27,nt,86,90
N#CC(C#N)Cc1ccccc1F,3,106,nt,nt
CCc1ccc(Nc2nn(-c3ccc(OC(F)(F)F)cc3)nc2C(C)=O)cc1,-42,100,98,89

New compounds follow:
Compound,HCMV UL50-53 inh,GIV Gai3 FP,Sa growth 42C,Sa growth 42C second temp
CNc1ccc2cccc(Oc3ccc4cccc(O)c4n3)c2n1,nt,96,107,51
COc1ccc(C(CC(=O)NCc2cccnc2)N2Cc3ccccc3C2=O)cc1 (configuration not stated),-22,104,104,88
CC(=O)N1CCCc2cc(NC(=O)c3ccc(Br)cc3)ccc21,3,99,nt,nt
Cc1ccc(C(=O)N2c3ccccc3NC(=O)CC2C)cc1 (configuration not stated),-8,103,nt,nt
O=C(COc1ccc(Cl)cc1Cl)NC1CCS(=O)(=O)C1 (configuration not stated),nt,103,101,80

Rows were taken by chance (roughly 0.82% active in at least one column).
